TRPML1 agonist: human mucolipin-1 channel agonism; Q9GZU1; TRPML1-expressing cells, Ca2+ dye fluorescence, FDSS; host cell line not named in the record; reference of the full effect not given here; activation, % (concentration not given with the values); hit rate 0.12% among 410,000; in the data active = activation above about 50%; inconclusive = about 30% to 50%; inactive = below about 30%; note: 0% is about no effect; the text of the record puts the active cut at 80%
Target sequence (Q9GZU1 whole entry, looked up): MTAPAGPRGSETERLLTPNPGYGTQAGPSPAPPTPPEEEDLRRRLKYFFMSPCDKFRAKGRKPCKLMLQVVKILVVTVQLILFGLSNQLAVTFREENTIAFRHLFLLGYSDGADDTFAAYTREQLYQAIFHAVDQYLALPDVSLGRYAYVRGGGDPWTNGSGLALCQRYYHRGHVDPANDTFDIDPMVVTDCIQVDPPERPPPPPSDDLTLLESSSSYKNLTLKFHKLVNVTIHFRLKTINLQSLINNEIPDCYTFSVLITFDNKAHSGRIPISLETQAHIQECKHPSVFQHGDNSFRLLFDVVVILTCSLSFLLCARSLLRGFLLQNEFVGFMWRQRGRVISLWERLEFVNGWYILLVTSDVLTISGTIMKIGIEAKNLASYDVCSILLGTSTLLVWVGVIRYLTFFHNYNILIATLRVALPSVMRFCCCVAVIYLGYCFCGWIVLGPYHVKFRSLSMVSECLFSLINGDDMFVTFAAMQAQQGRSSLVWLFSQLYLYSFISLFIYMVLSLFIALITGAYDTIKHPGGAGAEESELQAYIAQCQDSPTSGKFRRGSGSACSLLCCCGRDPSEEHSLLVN
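Tetracycline-induced TRPML1-DL cells are seeded and incubated overnight before loading with a no-wash Ca2+ dye and quencher. Agonist activity is taken from the 110 s fluorescence read following compound pin-transfer on an FDSS, before EC80 54-4 challenge.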
Six1-Eya2 blk: inhibitors of human Six1/Eya2 interaction. Q15475+O00167. AlphaScreen GST-Six1/His-Eya2 binding, biochemical; hits give low values; control for the full effect not named in the record. activity change, % (no concentration beside the values). hit rate 0.56% among 360,000; in the data active = activity change below about -65%; inconclusive = about -30% to -65%; inactive = above about -30%; note: % is set by controls: 0 for no effect and ±100 for the full control effect; compound concentration not given in the record
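GST-Six1 + His-Eya2 (5X stock: 250/500 nM); Tris pH 8.0, 300 mM NaCl, 0.05% BSA, 0.02% Tween 20; GSH donor/Ni acceptor beads; 1 h 37 °C dark; AlphaScreen readout.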
CtBP-E1A blk: CtBP/E1A binding inhibition; AlphaScreen GST-E1A/His-CtBP binding, 1536-well; hits give low values; control for the full effect not named in the record; activity change, % (no concentration beside the values); hit rate 0.49% among 340,000; in the data active means activity change below about -65%; inconclusive means about -30% to -65%; inactive means above about -30%; note: % is set by controls: 0 for no effect and ±100 for the full control effect; compound concentration not given in the record
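Protein mix (5X: 125 nM each GST-E1A, His-CtBP) was incubated with pinned compound 2 h at 37 deg C in dark, in 50 mM Tris pH 8.0 buffer with 300 mM NaCl. Glutathione donor and nickel acceptor beads followed; AlphaScreen signal read after 1 h.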
TRPV1 potentiator: enhances activation of the human vanilloid receptor TRPV1; hit rate 0.02% among 320,000; potentiation, % at 8.33 µM; TRPV1-expressing cells, Fluo-8 calcium influx, capsaicin EC20 potentiation; host cell line not named in the record; control for the full effect not named in the record; AID 540277; active means potentiation above 80%; inconclusive means 30% to 80%; inactive means below 30%; note: 0% is about no effect
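Fluo-8 calcium influx in TRPV1-expressing cells, kinetic read (ex 480/em 520 nm). Compound added and read 3 min for agonist activity, followed by capsaicin at EC20 final and 2 min further read for enhancement.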
D2 PAM: potentiates the human D2 dopamine receptor allosterically | P14416 | DiscoveRx D2 beta-arrestin cells, luminescence, 90 min; 100% = 57 uM dopamine signal | potentiation, % (concentration not given with the values) | hit rate 0.23% among 360,000 | AID 624464; active = potentiation of 50% or more; inconclusive = 30% to 50%; inactive = 30% or less;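 note: compound concentration not given in the record; tested on top of an EC20 dose of dopamine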
Target sequence (P14416 whole entry, looked up): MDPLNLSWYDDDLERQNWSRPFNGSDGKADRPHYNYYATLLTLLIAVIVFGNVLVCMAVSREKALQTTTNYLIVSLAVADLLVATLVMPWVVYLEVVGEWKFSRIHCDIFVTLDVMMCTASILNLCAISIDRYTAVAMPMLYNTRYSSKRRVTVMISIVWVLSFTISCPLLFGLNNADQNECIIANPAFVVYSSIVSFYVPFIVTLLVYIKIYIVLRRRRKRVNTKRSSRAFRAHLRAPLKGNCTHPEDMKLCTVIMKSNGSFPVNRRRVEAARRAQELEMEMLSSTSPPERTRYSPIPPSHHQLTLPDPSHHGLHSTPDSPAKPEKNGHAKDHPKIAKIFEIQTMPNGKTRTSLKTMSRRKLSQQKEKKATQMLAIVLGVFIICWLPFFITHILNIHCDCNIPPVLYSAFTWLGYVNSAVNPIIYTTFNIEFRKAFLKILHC
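D2 cells co-treated with compound plus 50 nM dopamine (EC20) for 90 min at 37 deg C to detect potentiation. Beta-arrestin recruitment was read as enzyme-fragment luminescence after 1 h at ambient temperature. Full response was set by 57 uM dopamine.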
TRPML1 blocker: human mucolipin-1 channel inhibition; Q9GZU1; TRPML1-inducible cells, Ca2+ dye fluorescence, FDSS; hits give low values; inhibition of EC80 agonist-evoked calcium signal; activity change, negative = inhibition, % (concentration not given with the values); hit rate 0.02% among 390,000; in the data active means activity change below about -50%; inconclusive means about -30% to -50%; inactive means above about -30%;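 note: stimulus is agonist 54-4 at its EC80 concentration; % is set by controls: 0 for no effect and ±100 for the full control effect; compound concentration not given in the record; the text of the record puts the active cut at -80%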
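TRPML1-DL cells, Tet-induced overnight (~16 h, 37 °C) at 1,500 cells/well, were loaded with Ca8 no-wash dye plus quencher for 45-90 min at room temperature. Compounds were pinned during FDSS kinetic reading; agonist 54-4 at EC80 (4 uM final) then added.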
* marks the source's active call; other numbers are inactive results; ? = inconclusive; . = not tested or not shown; & = joins results of further samples.

SMILES	TRPML1 agonist	Six1-Eya2 blk	CtBP-E1A blk	TRPV1 potentiator	D2 PAM	TRPML1 blocker
Cc1cc(C(=O)NC2CCC(C)CC2)c(C)o1 (stereo unspecified)	-0.1	-8	-7	-8	-7	25
CCOC(=O)N1CCN(C(=O)CSc2nnc(-c3ccccc3OC)o2)CC1	1.0	8	3	-2	2	7
COc1ccc(CCNC(=O)CC2(CC3=NS(=O)(=O)c4ccccc4N3)CCCC2)cc1OC	-0.2	2	.	6	0	7
N#Cc1cc2c(ccc3ccccc32)oc1=O	0.4	6	0	-8	-1	18
COc1cccc(C(=O)Nc2cccc(C(=O)NC3=NN(c4c(Cl)cc(Cl)cc4Cl)C(=O)C3)c2)c1	0.4	-71*	-80*	-2	-7	-13
O=C(N/N=C/c1ccncc1)c1cc(C2CC2)nc2ccccc12	2.2	-7	-23	-9	5	8
CCn1c(N)c(C(=O)NC)sc1=S	-1.0	-3	-1	6	-13	-2
COC(=O)CC1C(=O)NCCN1C(=O)CSc1nnc(Nc2ccc(C)cc2)s1 (stereo unspecified)	0.1	-10	-1	-8	4	?
CC(Oc1ccc(Cl)cc1Cl)C(=O)NNC(=O)C(=O)N1CCCCC1 (stereo unspecified)	-0.6	3	1	-5	-5	-9
Cc1ccc2nc(SCC(=O)c3ccc(O)cc3O)[nH]c2c1	1.6	-1	.	6	1	-11
CCOc1ccc(OCc2ccc(C(=O)N3CCCCC3)o2)cc1	3.8	-7	-10	-11	-10	11
CCn1ncc(/C=N\NC(=O)COc2cc(C)cc(C)c2)c1C	0.0	0	-16	16	-6	?
CC(OC(=O)Cc1c[nH]c2ccccc12)C(=O)Nc1ccc(S(N)(=O)=O)cc1 (stereo unspecified)	0.2	-5	1	0	-7	16
COc1ccc(OC)c(NC(=O)CN2c3cccc4cccc(c34)S2(=O)=O)c1	2.5	1	-4	.	-12	5
CCOc1ccccc1C1C(C(N)=O)=C(C)Nc2nc(-c3ccc(OC)cc3)nn21 (stereo unspecified)	-0.5	-19	-8	0	-8	-6
COc1cc(C(=O)N(CCN(C)C)CC2CCCN(Cc3ccccc3F)C2)ccc1C (stereo unspecified)	-0.3	-14	1	?	-2	10
CCOc1cccc2c1OC(c1cc(OC)c(OC)c(OC)c1)N1N=C(c3ccc(C)o3)CC21 (stereo unspecified)	-0.1	-6	-8	2	-6	-1
O=C(NCCc1ccccc1)c1ccccc1SCC(=O)N1CCCC1	0.1	7	2	18	0	?
O=C(OCCCc1cc2ccccc2c(=O)o1)c1ccc(C(F)(F)F)cc1	0.9	36	38	4	-3	8
CC(C)Sc1nc(SCC(=O)NCc2ccco2)c2c3c(sc2n1)COC(C)(C)C3	2.4	-6	5	-9	-6	77

Compound profiles, from the list above. Values in the order: TRPML1 agonist	Six1-Eya2 blk	CtBP-E1A blk	TRPV1 potentiator	D2 PAM	TRPML1 blocker
CC(OC(=O)Cc1c[nH]c2ccccc12)C(=O)Nc1ccc(S(N)(=O)=O)cc1 (stereo unspecified) in the list: 0.2	-5	1	0	-7	16
CC(Oc1ccc(Cl)cc1Cl)C(=O)NNC(=O)C(=O)N1CCCCC1 (stereo unspecified) in the list: -0.6	3	1	-5	-5	-9

More structures.
SMILES	TRPML1 agonist	Six1-Eya2 blk	CtBP-E1A blk	TRPV1 potentiator	D2 PAM	TRPML1 blocker
O=C(Cc1ccc(NC(=O)C2CCN(C(=O)C3CC3)CC2)cc1)Nc1cccc(C(=O)N2CCCCC2)c1	1.8	-1	-1	.	-4	38
Cc1ccc(SCCN2CCN(C)CCC2=O)cc1	0.5&-0.7	6	10	13	-16	8&42
N#C/C(=C\C=C\c1ccccc1[N+](=O)[O-])c1nc(-c2ccc3c(c2)OCO3)cs1	1.9	-1	11	6	4	-1
CC(OC(=O)/C=C/c1ccc2ccccc2n1)C(=O)Nc1ccc(S(N)(=O)=O)cc1 (stereo unspecified)	0.8	7	-8	-8	-6	-2
O=C(c1ccccn1)N1CCN(S(=O)(=O)c2ccc3ccccc3c2)CC1	1.7	2	-2	-12	10	14
CC1=NN(c2ccccc2)C(=O)/C1=C/c1ccc(-c2ccc(C)c(C(=O)O)c2)o1	-0.1	-3	3	.	-1	3
CSc1nnc(-c2sc(-c3ccccc3)nc2C)n1C	0.9	3	3	2	3	-5
NC(=O)Nc1ccc(C(=O)OCC(=O)Nc2ccc([N+](=O)[O-])cc2C(F)(F)F)cc1	0.1	0	-3	-7	6	52
CCOc1ccc(Cc2c(Cl)nc(N)nc2Cl)cc1	1.1	-1	7	25	-3	-11
CCC(C)N(CCNC(=O)c1ccc(NC2=NC3CS(=O)(=O)CC3S2)cc1)Cc1ccco1 (stereo unspecified)	-0.1	2	8	-3	-7	-7
COc1ccc2c(O)c(-c3c(C)cc(C)cc3C)c(=O)[nH]c2c1	0.3	1	1	.	-4	8
CC(=O)c1sc(NC(=O)c2ccco2)nc1-c1ccccc1	-0.7	1	6	-11	-7	16
O=S(=O)(/N=C(/Nc1ccc(Cl)c(S(=O)(=O)N2CCOCC2)c1)c1ccc(F)cc1)c1ccccc1	0.4	-1	-3	-2	24	-9
CCCCN(c1ccc(C(=O)OC)cc1)S(=O)(=O)c1ccccc1	0.6	8	18	-2	-4	75
COc1ccc(-c2cn(Cc3ccc(C(N)=O)cc3)c(CCN)n2)cc1	0.0	-7	-7	-31	-7	14
Cc1ccc(CNC(=O)CCC(=O)Nc2nnc(C(C)C)s2)cc1	-1.1	3	3	-1	8	18
CC(C)[C@H](NS(=O)(=O)c1cccc(C(F)(F)F)c1)C(=O)OCC(N)=O	0.3	8	6	-1	0	4
COc1ccccc1CN1C(=O)CCC1(C)C(=O)NCc1cccnc1 (stereo unspecified)	-0.9	4	6	11	11	-18
COc1ccccc1NC(=O)N1CCn2c(nc3ccccc32)C1	-0.3	-1	12	2	-12	-16
O=C(C1CCN(S(=O)(=O)N2CCOCC2)CC1)N1CCN(c2ccc(F)cc2)CC1	0.1	2	4	6	0	0
COc1ccc(C(=O)NNC(=O)c2cc(C)[nH]n2)cc1	2.3	2	.	0	4	-1
OC(c1ccc(F)cc1)c1nc(-c2csc3ccccc23)cs1 (stereo unspecified)	0.0	8	3	.	-8	.
CCN(CC)CCCC1(CN)OCCc2ccccc21 (stereo unspecified)	1.1	1	11	1	11	21
N#C/C(=C\c1ccncc1)c1ccccn1	-0.7	-11	-17	17	-1	10
CCOCCn1c(CN2CCC(Cc3ccccc3)CC2)nc2c1c(=O)n(C)c(=O)n2C	0.2	1	-2	13	-3	-2
Cc1ccc(NC(=O)COC(=O)CCc2c[nH]c3ccccc23)c(C)c1	0.5	-13	.	17	-9	20
Cc1ccc(NC(=O)c2cc(S(=O)(=O)N3CCCCC3)ccc2N2CCOCC2)cc1S(=O)(=O)N(C)C	-0.4	0	.	.	2	-1
COC(=O)Cn1c(=NC(=O)CCS(=O)(=O)c2ccccc2)sc2c(OC)ccc(OC)c21	-0.5	2	1	10	-2	39
COc1ccc(C(=O)CCC(=O)N2CCN(c3cccc(Cl)c3)CC2)cc1	1.7	-13	-22	-22	1	18
CCc1c(C(=O)Nc2ccc(S(=O)(=O)N3CCOCC3)cc2)csc1C	2.6	-3	2	-2	-7	41
Cc1cc(OCC(=O)Nc2ccc(OCc3ccccc3)cc2)nc(C(C)C)n1	1.5	-1	-5	10	-4	31
CC(=O)Nc1ccc(-c2ccnc3c2CC(C)(C(=O)Nc2ccc(Cl)cc2)O3)cc1 (stereo unspecified)	-0.8	-1	?	.	-14	64
CSc1nc2nc3c(cc2c(=O)n1-c1ccccc1C)CCCC3	1.3	-5	4	-2	-3	-3
CCc1ccc2[nH]c(=O)c(Cc3ccccc3)c(O)c2c1	.	3	.	14	-12	.
Clc1ccccc1-c1nnc2sc(-c3ccccn3)nn12	3.2	-1	-16	-16	-18	-21
COCCCn1c(=N)c(C(N)=S)cc2c(=O)n3cccc(C)c3nc21	1.8	?	-22	.	-1	-20
COc1ccc(NC(=O)CN2CCN(C(C)=O)CC2)cc1S(=O)(=O)N1CCOCC1	1.3	1	5	.	-3	6
CC(=O)Nc1nc2n(n1)C(c1ccc(F)cc1)C=C(c1ccccc1)N2 (stereo unspecified)	1.9	-6	-2	5	-1	12
CCc1noc(C)c1C(=O)NNC(=O)c1nn(C)c(=O)c2ccccc12	1.0	4	-20	4	-1	-11
COc1ccc(-c2cc(C(=O)N3CC4(C)CC3CC(C)(C)C4)no2)cc1 (stereo unspecified)	0.4	2	4	?	-7	7
CN(Cc1cnccn1)C(=O)C1CCC(=O)N(CCc2ccc(Cl)cc2)C1 (stereo unspecified)	0.0	0	2	5	-4	-6
CC(C)C(=O)Nc1ccc(N2CCOCC2)c(S(=O)(=O)Nc2ccccc2Cl)c1	0.1	23	-19	.	-26	21
Cc1ccc(NC(=O)c2cnc3ccccc3n2)cc1C	1.0	-4	-5	-12	-5	3
Cc1cc(C)cc(NC(=O)CSc2nc3c(c(=O)[nH]2)CN(Cc2ccc(F)cc2)CC3)c1	-1.3&-1.7	-3	0	-15	-9	15&-10
NS(=O)(=O)c1ccc(NC(=O)COC(=O)Cn2cnc3ccccc3c2=O)cc1	0.0	7	0	.	-3	-3
Cc1cccc(/C=N/NC(=O)c2ccc(NC(=O)c3ccc(Cl)cc3)cc2)n1	0.1	-21	-5	-1	-9	26
COCCNC(=O)Cn1cnc2c1c(=O)n(C)c(=O)n2C	-0.8	8	11	6	-5	21
COc1ccc(CCn2nnnc2C(CC(C)C)N2CCN(c3ncccn3)CC2)cc1OC (stereo unspecified)	0.6	4	5	-6	3	10
Cc1ccc2c(c1)[C@H]1[C@H](CO2)[C@H](c2ccccc2)[C@]2(C)C(=O)Nc3cc(F)c(F)cc3C(=O)N12	-0.9	-6	-3	.	-13	-7
COc1cccc(/C=C/C(=O)OCC(=O)Nc2cccc(S(=O)(=O)N(C)C)c2)c1	2.9	-23	?	15	-12	-9
CCCCN1CC(=O)N2Cc3[nH]c4ccccc4c3C[C@H]2C1=O	.	-18	-11	-11	-7	.
CSCCC(NC(=O)c1ccccc1)C(=O)N1CC=C(c2ccccc2)CC1 (stereo unspecified)	3.1	-12	-6	10	-1	35
N/C(CS(=O)(=O)c1ccc(F)cc1)=N\O	-0.3	27	9	-1	-2	0
O=C(NCc1cccnc1)/C(=C/c1ccc(-c2ccc(Cl)cc2)o1)S(=O)(=O)c1ccccc1	0.5	-2	-2	16	-19	52

As entered above:
TRPML1 agonist, COc1ccc(CCn2nnnc2C(CC(C)C)N2CCN(c3ncccn3)CC2)cc1OC (stereo unspecified) → 0.6
TRPML1 blocker, Cc1ccc(NC(=O)c2cnc3ccccc3n2)cc1C → 3
TRPML1 blocker, NS(=O)(=O)c1ccc(NC(=O)COC(=O)Cn2cnc3ccccc3c2=O)cc1 → -3
Six1-Eya2 blk, COCCNC(=O)Cn1cnc2c1c(=O)n(C)c(=O)n2C → 8
D2 PAM, CCCCN1CC(=O)N2Cc3[nH]c4ccccc4c3C[C@H]2C1=O → -7
Six1-Eya2 blk, COc1cccc(/C=C/C(=O)OCC(=O)Nc2cccc(S(=O)(=O)N(C)C)c2)c1 → -23
CtBP-E1A blk, N/C(CS(=O)(=O)c1ccc(F)cc1)=N\O → 9

Compounds were not picked by outcome; any-hit rate near 0.95%.
